Bioassay records deposited in PubChem by National Center for Advancing Translational Sciences (NCATS).
TRPV1 potentiator: enhances activation of the human vanilloid receptor TRPV1; Q8NER1; TRPV1-expressing cells, Fluo-8 calcium influx, capsaicin EC20 potentiation; host cell line not named in the record; control for the full effect not named in the record; potentiation, % at 8.33 µM; 320,000 compounds, 0.02% hits; active means potentiation above 80%; inconclusive means 30% to 80%; inactive means below 30%; also: 0% is about no effect
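TRPV1-expressing cells were cultured overnight at 35.5C and loaded with Fluo-8 calcium dye for 40 to 90 min at room temperature. After a 10 s baseline, compound was added and calcium influx was read kinetically for 3 min (ex 480/em 520 nm).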
gsp agonist: agonists of gsp mutant (McCune-Albright syndrome); AID 624287; 340,000 compounds, 0.13% hits; gsp mutant cells, cAMP HTRF, 30 min; control for the full effect not named in the record; Potency, µM (doses to about 76.9 µM), for the others: at the highest dose activation (cAMP increase), hits mostly activators; active = well fitted activation curve with a large enough effect; inconclusive = small, poorly fitted or top-dose-only effect, or another doubt; inactive = no such curve, though single readings can be large or run the other way; cell line not stated here;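 also: phosphodiesterase inhibitor Ro 20-1724 added with compounds to block cAMP breakdown; potency is read from the fitted curve at half-maximal effect; nearly all actives have a fitted effect of over 60% in size; about a fifth of the inactives were tested at one dose only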
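Cells in DMEM/10% FBS with G418 were pretreated with compounds in DMSO plus […] (300 uM stock) for 30 min at 37C. cAMP was measured by HTRF (cAMP-d2 plus anti-cAMP antibody-K) after 30 min at room temperature.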
Sfp PPTase inh: Sfp phosphopantetheinyl transferase inhibition; Q9F4F7; 310,000 compounds, 3.5% hits; Biochemical Sfp PPTase activity, qHTS; Potency, µM, without a hit: max response, negative = inhibition, usual class: inhibitors; active = well fitted inhibition curve with a large enough effect; inconclusive = small, poorly fitted or top-dose-only effect, or another doubt; inactive = no such curve, though single readings can be large or run the other way;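 also: the enzyme is Sfp with the accession as filed and its product quenches rhodamine fluorescence; potency is read from the fitted curve at half-maximal effect; 0% = enzyme reaction without inhibitor and -100% = no enzyme wells; top concentration of the series not given in the record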
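Sfp 15 nM + cpd, 15 min RT; start w/ rhodamine-CoA 5 uM, BHQ-2-YbbR 12.5 uM (final); 50 mM Hepes pH 7.6, 10 mM MgCl2, 0.01% NP-40, 0.01% BSA; read 525/598 nm at 0 and 30 min.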
gsp antag: gsp mutant antagonism. 340,000 compounds, 0.4% hits. AID 624288. Potency, µM (doses to about 76.9 µM), for the others: at the top dose activity change, negative = inhibition, usual class: inhibitors. gsp-mutant cells, cAMP HTRF, 30 min; control for the full effect not named in the record; active = falling curve of any shape with a large fitted effect; inconclusive = falling curve, mostly with a smaller effect; inactive = flat or rising curve; cell line not stated here;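 also: intracellular cAMP measured with PDE inhibitor Ro 20-1724 present during compound exposure; potency is read from the fitted curve at half-maximal effect; % is scaled to controls: 0 for no effect and ±100 for the full control effect; nearly all actives have a fitted effect of over 65% in size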
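HTRF cAMP measurement after 30 min RT detection following 30 min, 37C compound treatment alongside […] (added as 300 uM solution) in G418-selected cells seeded at 2000/well and grown 16–24 h.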
Menin MLL FP FL: displaces fluorescein MLL peptide from human menin. Fluorescence polarization, fluorescein-MLL peptide displacement from menin. AID 1766. 290,000 tested, under 10 active. FP activity change, % at 61.4 µM; inconclusive = falling polarisation curve, or a change in total fluorescence; inactive = total fluorescence flat and polarisation flat or rising; no compound was filed as active; the % refers to the polarisation; negative = inhibition;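 also: % of control where 0% means no effect; inhibitors lower the polarisation; unlabelled MLL peptide was the positive control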
D2 potentiator: positive allosteric modulators of human D2 dopamine receptor; DiscoveRx D2 beta-arrestin cells, luminescence, 90 min; 100% = 57 uM dopamine signal; potentiation, % (test concentration not listed); 360,000 compounds, 0.23% hits; active = potentiation of 50% or more; inconclusive = 30% to 50%; inactive = 30% or less;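 also: compound concentration not given in the record; tested on top of an EC20 dose of dopamine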
Target sequence (P14416 whole entry, looked up): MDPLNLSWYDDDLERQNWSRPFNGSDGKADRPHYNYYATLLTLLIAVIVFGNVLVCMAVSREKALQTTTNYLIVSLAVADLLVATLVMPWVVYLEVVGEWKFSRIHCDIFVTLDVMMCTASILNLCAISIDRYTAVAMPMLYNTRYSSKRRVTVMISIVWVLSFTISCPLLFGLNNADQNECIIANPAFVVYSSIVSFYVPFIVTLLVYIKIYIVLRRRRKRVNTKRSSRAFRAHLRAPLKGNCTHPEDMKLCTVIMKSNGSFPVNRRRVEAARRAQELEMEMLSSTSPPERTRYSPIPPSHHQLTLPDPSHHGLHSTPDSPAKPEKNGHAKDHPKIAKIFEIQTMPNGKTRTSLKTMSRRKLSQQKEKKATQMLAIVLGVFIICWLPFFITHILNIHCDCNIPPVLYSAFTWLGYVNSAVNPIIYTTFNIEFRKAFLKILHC
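D2 cells co-treated with compound plus 50 nM dopamine (EC20) for 90 min at 37 deg C to detect potentiation. Beta-arrestin recruitment was read as enzyme-fragment luminescence after 1 h at ambient temperature. Full response was set by 57 uM dopamine.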
ClpP mod: qHTS Assay for Activators of ClpP | AID 651965, 2013 | purified B. subtilis ClpP, FRET peptide cleavage, 20 min | ATP-dependent Clp protease proteolytic subunit (Bacillus subtilis (strain 168)), P80244 | Potency, µM (highest dose often 57.5 µM), for inactives: at the top dose activity change, negative = active | 340,000 compounds, 1.9% hits; active = well fitted falling curve with a large enough effect; inconclusive = small, poorly fitted or top-dose-only effect; inactive = no such curve, though single readings can be large or run the other way; also: potency is read from the fitted curve at half-maximal effect; the source files actives as falling curves though it sought activators and does not explain the sign; nearly all actives have a fitted effect of over 65% in size; many hits overshoot -100%
Target sequence (P80244 whole entry, looked up): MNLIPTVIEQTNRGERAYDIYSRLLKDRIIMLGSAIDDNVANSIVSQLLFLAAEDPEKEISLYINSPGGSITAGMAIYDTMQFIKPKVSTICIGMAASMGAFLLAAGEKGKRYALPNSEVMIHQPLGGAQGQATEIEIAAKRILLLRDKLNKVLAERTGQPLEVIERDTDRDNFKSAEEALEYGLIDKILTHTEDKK
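Purified B. subtilis ClpP, 10 microg/mL final in Tris/HCl pH8 with KCl, BSA, glycerol and Tween-20, cleaved an Abz/nitrotyrosine-quenched decapeptide. Fluorescence (ex 320, em 430) was read at 0 and 20 min at room temperature. Delta was normalized to 5.8 microM ADEP and DMSO/no-enzyme controls.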
Numbers without * were called inactive; ? = inconclusive; . = not tested or not shown; [ ] = remark or other dose. The order is random; 5.1% or so of the library scored in one or more.

SMILES | TRPV1 potentiator | gsp agonist | Sfp PPTase inh | gsp antag | Menin MLL FP FL | D2 potentiator | ClpP mod
Cc1ccc(NC(=O)COC(=O)c2cc(Cl)ccc2Cl)c(Br)c1 | ? | -61.9%[inhibitor] | 3.8% | 18.1% | 9.4 | -2.4 | 3.1%
CCCC(=O)Nc1nnc(SCC(=O)Nc2ccc(OCC)cc2)s1 | . | -25.5% | . | . | . | -8.2 | 0.6%
COc1ccc(NC(=O)CSc2nc(C3CC3)nc3ccccc23)c(OC)c1 | 20.5 | -18.5%[15.4 µM] | -11.0% | -1.6% | -1.8 | -12.9 | -0.8%
O=C(Nc1ccc(C2=NCCN2)cc1)c1ccc(C(=O)Nc2ccc(C3=NCCN3)cc2)c(Cl)c1 | 1.8 | -20.6% | 9.0% | 8.1% | 4.4 | -7.7 | -0.9%
CC(C)=CC(=O)OCC(=O)Nc1ccccc1Cl | -28.5 | -4.9% | 8.8% | 2.2% | -4.9 | -7.2 | 0.3%
COc1cccc(C2CC(c3cccc(Br)c3)n3ncnc3N2)c1 (stereo not given) | -8.6 | -4.0% | 0.3% | 2.3% | 0.6 | -2.9 | 0.0%
CC(C)(C)NC(=O)C(c1c[nH]c2ccccc12)N(C(=O)Cn1nnc(-c2ccc(F)cc2)n1)c1cccc(O)c1 (stereo not given) | -2.9 | -3.3% | 15.2% | 0.4% | 0.5 | -2.1 | 1.0%
O=C(O)CNS(=O)(=O)c1ccc(F)cc1 | -35.3 | 5.8% | 15.2% | 15.8% | 5.0 | -4.0 | 1.4%
O=C(CSc1nc2ccc(Cl)cc2o1)NCc1ccc2c(c1)OCO2 | 0.8 | -39.4%[inhibitor] | 2.4% | -14.3% | 0.6 | -16.7 | -16.0%
COc1ccc(/C=N/Nc2nc(-c3ccc(C)cc3)c(NC(C)=O)s2)cc1 | -0.8 | -25.6% | 7.9% | -12.5% | 3.5 | 3.9 | .
Cc1ccc(C(=O)C(OC(=O)CNS(=O)(=O)c2ccccc2)c2ccccc2)cc1 (stereo not given) | 1.6 | -41.7%[inhibitor] | 16.6% | -22.2% | -1.6 | -1.6 | 0.8%
Nc1nc2cc(Cl)c(Br)cc2o1 | . | -21.9% | . | -16.3% | . | -8.2 | 0.9%
COc1ccc(N2CCN(C(=O)c3cccc(N4C(=O)C5CC=CC(C)C5C4=O)c3)CC2)cc1 (stereo not given) | -16.2 | ? | -2.6% | -22.5% | -0.7 | -4.9 | 0.8%
CCn1c(SCC(=O)Nc2ccc3c(c2)c2ccccc2n3CC)nnc1-c1ccco1 | -7.5 | -42.5%[inhibitor] | -1.3% | -5.3% | -1.5 | -20.9 | -3.0%
O=C(CSC1CC(=O)N(CCc2ccccc2)C1=O)Nc1ccc(Cl)cc1 (stereo not given) | 20.3 | -3.3% | 3.4% | -11.3% | 2.1 | -7.4 | -0.6%
Cc1cccc(NC(=O)CSc2nc3ccccc3nc2N2CC(C)OC(C)C2)c1 (stereo not given) | 13.3 | 19.3% | 7.6% | -15.0% | 5.7 | -1.2 | ?
COC(=O)C1=C(NC(=O)C(C)(C)C)CCS1 | ? | 12.3% | 9.7% | 10.6% | 5.9 | -18.2 | 1.4%
C[C@@H]1CN([C@@H](C)CO)S(=O)(=O)c2ccc(Br)cc2O[C@@H]1CN(C)C(=O)NC1CCCCC1 | . | -22.3% | . | . | . | -1.2 | -0.2%
CCCN1C2CCCC1CC(NC(=O)Nc1ccc(C(C)C)cc1)C2 (stereo not given) | -8.9 | 9.6% | 11.1% | 5.8% | 2.3 | -7.5 | -3.0%
CCCCn1nc2cc(C(=O)NCC34CC5CC(CC(C5)C3)C4)ccc2c1OCC | 7.8 | . | 12.6% | -8.0% | 2.8 | -8.3 | 3.4%
COc1ccc(-c2cccc(C(=O)Nc3ccccc3C)c2)cc1 | 15.8 | 1.2% | -9.4% | 10.5% | 3.2 | -17.3 | ?
CCC(Sc1nnc(C)c(=O)[nH]1)C(=O)Nc1cccc2ccccc12 (stereo not given) | 1.2 | -24.0%[15.4 µM] | 7.2% | -0.1% | 4.3 | 2.9 | .
CC1CCN(CC(=O)Nc2ccccc2C(=O)NC2CC2)CC1 | -12.6 | ? | . | 8.8% | . | 0.9 | -3.2%
CC(C)n1c(SCC(N)=O)nc2c1c(=O)n(C)c(=O)n2C | 0.4 | ? | 5.9% | 1.0% | 3.5 | 2.2 | -0.7%
Cc1nc(N)[nH]c(=O)c1CCCNc1ccc(CCCCC2(CCl)OCCO2)cc1 | . | 4.0% | . | -1.4% | . | 5.5 | .
Cc1nn(Cc2c(F)c(F)c(F)c(F)c2F)c(C)c1NC(=O)c1nn(C)cc1Br | 1.6 | 14.6% | 0.9% | -2.6% | . | 3.5 | 0.8%
N#CC1=C(N)Oc2ccc3ccc(O)cc3c2C1c1ccsc1 (stereo not given) | 6.3 | -16.3%[15.4 µM] | -8.0% | -12.9% | 8.5 | -8.7 | .
COc1ccc(C(=O)N[C@H](C(=O)Nc2nc3ccccc3[nH]2)C(C)C)cc1 | 15.8 | -19.0%[15.4 µM] | 23.6% | -3.4% | 2.5 | -18.6 | -0.8%
O=C(NCCc1cccc(Cl)c1)c1cccs1 | 15.5 | 24.7% | 17.2% | 0.2% | -3.5 | -8.8 | -0.4%
CC[C@]12c3[nH]c4cc(-c5ccco5)ccc4c3CCN1C(=O)[C@@H](CC(=O)NCc1ccc(OC)c(OC)c1)C[C@@H]2C(=O)N1CCN(C(=O)C2CC2)CC1 | . | . | . | -11.4% | . | 2.6 | 3.6%
Cc1cc(C)c([N+](=O)[O-])cc1-c1ccc(/C=N/c2c(-c3ccco3)nc3ccccn23)o1 | -2.4 | -3.2% | ? | -15.7% | ? | ? | ?
O=C(Cn1cnc2c(cnn2-c2ccc(Cl)cc2)c1=O)NCC1CCCO1 (stereo not given) | 5.2 | ? | 20.6% | -1.6% | -0.2 | -3.6 | -16.0%
Cc1ccc2c(c1)c1nc3ccccc3nc1n2CCN1CCOCC1 | -20.8 | 0.0% | 4.3% | 9.5% | -1.5 | -4.4 | -1.1%
CC(Oc1ccc(C(=O)NCCc2ccccc2)cc1)C(=O)O (stereo not given) | 5.0 | -23.5% | 3.7% | 9.4% | -1.8 | -5.5 | -1.3%
CCc1ccc(-n2c(=O)c3ccccc3n3c(=S)[nH]nc23)cc1 | 6.3 | -6.3% | 44.7µM* | 11.0% | 4.2 | -8.0 | -5.4%
CNC(=O)c1[nH]cnc1C(=O)Nc1ccc(C)cc1 | -2.4 | -14.3% | -0.6% | 8.0% | 4.6 | -1.7 | 27.1%
Cc1ccc(O)c(C(=O)c2cnn(-c3ccccc3)c2)c1 | -3.3 | -1.9% | -15.8% | -19.6% | 3.5 | -3.9 | ?
CSc1nc(C)c2c(c1C#N)CCCC2 | -12.1 | 13.5% | -10.5% | -5.1% | 0.2 | 1.1 | -1.2%
CCOc1ccc(-n2c(C)nc(O)c2N=Nc2ccccc2)cc1 | -1.9 | -9.3%[15.4 µM] | -3.2% | 2.7% | 1.1 | -2.5 | .
C=CC[n+]1cccc(-c2cc3ccc(C)cc3[nH]2)c1 | 9.4 | 5.3%[15.4 µM] | 3.6% | 0.8% | 0.2 | -10.4 | .
Cc1c(CCC(=O)N2CCC(C(=O)NCCCCCC(=O)O)CC2)c(=O)oc2cc3oc4c(c3cc12)CCCC4 | -14.4 | -22.1% | -1.8% | -10.6% | 4.8 | -1.1 | -16.6%
O=C(CCc1c[nH]c2ccccc12)N1CCCCCCC1 | 25.8 | ? | 4.2% | 4.2% | . | -20.5 | -5.2%
COCc1cc(Sc2ccc(Cl)cc2Cl)nc(-c2ccccc2)n1 | -1.6 | -5.8% | -10.6% | 4.7%[15.4 µM] | 0.5 | -2.9 | -2.2%
COc1ccccc1C1CC(c2ccccc2)=NN1C(=O)c1ccccc1 (stereo not given) | -15.9 | -55.9%[inhibitor] | -11.0% | ? | -6.1 | -1.2 | -0.2%
CCn1cc(C(=O)NCCCOC(C)C)c2cc(OC)c(OC)cc2c1=O | -15.5 | 11.0% | 17.9% | 7.0% | 0.1 | 1.2 | -12.0%
O=c1oc2c(Cl)cc(Cl)cc2cc1-c1nnc(Nc2ccccc2F)s1 | -2.7 | . | 14.8% | . | 8.0 | . | .
Cc1ccc2nc(SCC(=O)N3CCN(c4ccccc4)CC3)nc(=O)n2c1 | 12.9 | 71.9%[15.4 µM] | . | 17.1% | . | -4.5 | .
Cc1ccc(S(=O)(=O)NNC(=O)c2ccc3ccccc3n2)cc1 | 13.1 | -35.0%[inhibitor] | 12.6% | -1.0% | 1.4 | -1.4 | .
C/C(=N\NC(=O)c1cccc(S(=O)(=O)N2CCOCC2)c1)c1ccc(OCC(=O)N(C)C)cc1 | -9.9 | -38.1% | . | -1.9% | . | -10.8 | -4.6%
COc1cccc(C(=O)O[C@@H]2[C@H](Cc3ccccc3)NS(=O)(=O)[C@H]3C[C@@H]4C=C[C@]23O4)c1 | 14.7 | 5.5% | . | -4.6% | . | -6.5 | -5.6%
O=C(NN1C(=O)C2C(C1=O)C1C=CC2C12CC2)c1cccc(Cl)c1 (stereo not given) | -3.4 | -50.8%[inhibitor] | 4.3% | 5.9% | 1.8 | -9.1 | -0.7%
CN1CCN(C(=O)c2ccc3c(c2)NC(=O)C(C)(C)O3)CC1 | 5.0 | -15.8% | 7.3% | 6.9% | -1.6 | -5.2 | -0.5%
Cc1ccc(NC(=O)NC(=O)COc2ccc(Cl)cc2Cl)c(C)c1 | 4.0 | -39.7%[inhibitor] | 12.9% | 9.2% | 2.8 | -0.5 | 1.2%
Cc1ccc(CS(=O)(=O)Cc2ccc(C(=O)NCCCN3CCOCC3)o2)cc1 | -5.3 | 6.1% | -1.1% | 7.3% | 3.4 | -17.8 | 0.4%
CC(C)(C)c1csc(NC(=O)CCc2ccccc2)n1 | 0.9 | -14.0% | -0.6% | -5.3% | -6.5 | -3.4 | 1.4%
